StopGo FLuc: Primary qHTS Assay for Foot and Mouth Disease Virus Antivirals against NCGC Sytravon and CBC Compound Libraries: Firefly Luciferase Signal | HEK cells with a luciferase reporter of 2A StopGo recoding | Potency, µM (highest dose often 57.5 µM), for the others: top-dose signal change, negative = less light | 120,000 tested, 0.23% active | AID 1745856, 2022; active = well fitted falling curve with a large enough effect; inconclusive = small, poorly fitted or top-dose-only effect; inactive = no such curve, though single readings can be large or run the other way; note: nearly all actives have a fitted effect of over 60% in size; overnight with compound
StopGo RLuc: Primary qHTS Assay for Foot and Mouth Disease Virus Antivirals against NCGC Sytravon and CBC Compound Libraries: Renilla Luciferase Signal; Potency, µM (top dose mostly 57.5 µM), inactives show at the highest dose signal change, negative = less light; AID 1745857, 2022; HEK cells with a luciferase reporter of 2A StopGo recoding; 120,000 tested, 0.32% active; active means well fitted falling curve with a large enough effect; inconclusive means small, poorly fitted or top-dose-only effect; inactive means no such curve, though single readings can be large or run the other way; note: nearly all actives have a fitted effect of over 55% in size; overnight with compound
Starred values were filed as active, the others as inactive; u = inconclusive; & = joins results of further samples; [ ] = another dose, or the depositor's remark. % is set by controls: 0 for no effect and ±100 for the full control effect; potency is the fitted concentration of half-maximal effect. The list is partial; the hit share may differ from the screen's.

SMILES	StopGo FLuc	StopGo RLuc
CC(=O)c1cccc(NC(=O)Cn2c(=O)c(CNc3ccc(C)cc3)cc3cc4c(cc32)OCCO4)c1	71%[activator]	1%
Fc1ccc(Br)cc1C1C=C(c2ccc(Br)cc2)Nc2nnnn21 (stereo not given)	-12%	-8%
O=c1c(S(=O)(=O)c2ccccc2)cn(Cc2ccc(F)cc2)c2cc(N3CCCCC3)c(F)cc12	-4%	4%
COc1ccccc1NC(=O)N1CCN(c2nnc(C)c3c(C)n(-c4ccc(Cl)cc4)nc23)CC1	-3%	3%
CC(C)OCC(O)Cn1c(NCCc2ccccc2)nc2c1c(=O)[nH]c(=O)n2C (stereo not given)	7%	0%
Cc1ccccc1Cn1c2ccccc2c2cnn(CC(=O)NC3CCCCCC3)c(=O)c21	-8%	-3%
CCCn1c(-c2ccc(F)cc2)nc2c1c(=O)[nH]c(=O)n2Cc1ccccc1	0%	3%
CC(Cl)C(=O)NC(C)(C)C (stereo not given)	u	-13%[1.06 µM]
COc1cc2c(cc1OC)-c1c(c(C(=O)N3CCC(C(N)=O)CC3)nn1-c1ccccc1)C2	117%[activator]	205%[activator]
COc1cc(CNC2CN3CCC2CC3)ccc1OCc1c(F)cccc1Cl (stereo not given)	5%	-10%
COc1cccc(C(=O)NCC(=O)OCc2cc(=O)n3nc(C)sc3n2)c1	-14%	-7%
N#CC(C(=O)C(F)(F)F)c1ccccc1 (stereo not given)	3%	5%
Cc1ccc(C)c(N2CCN(S(=O)(=O)c3ccc4[nH]c5c(c4c3)CCCCC5)CC2)c1	-2%	7%
Brc1ccc(-n2nc(-c3ccccc3)c3cnc4cc5c(cc4c32)OCO5)cc1	-24%	-18%
COC(=O)c1ccccc1NC(=O)N1CCN(CCc2ccncc2)CC1	-8%	-5%
COC(=O)C(Cc1ccccc1)NC(=O)c1ccc2c(c1)NC(=O)CS2 (stereo not given)	23%	12%
Cc1ccc2oc(C(=O)Nc3ccc(S(=O)(=O)N4CCCC(C)C4)cc3)cc(=O)c2c1 (stereo not given)	-15%	-6%
COc1ccc(OC)c2sc(N3CCN(C(=O)C(C)(C)C)CC3)nc12	48%[activator]	16%
CC(NC(=O)COc1c(I)cc(Cl)c2cccnc12)C1CC1 (stereo not given)	-10%	19%
COc1ccc(CNCCc2ccccc2)cc1	0%	-1%
O=C(CSc1ncc(-c2ccccc2)o1)Nc1ccc(Cl)cc1	18%	11%
COc1ccc(CNC(=O)CN(c2ccc(C(C)C)cc2)S(=O)(=O)c2c(C)nn(C)c2C)cc1	-12%	0%
COc1cc(Nc2nc(SCc3ccccc3F)nc3ccccc23)cc(OC)c1	u	13%
COc1ccc(-c2cc(=O)n(-c3cccc(C)c3)[nH]2)cc1OC	0%	-15%
COCCNC(=O)Cn1nc(-c2ccccc2)c2ccccc2c1=O	0%&-11%	-4%&7%
COc1cc(C2c3c(-c4cc(Cl)c(C)cc4O)n[nH]c3C(=O)N2CCO)ccc1O (stereo not given)	5%	10%
Cc1nc2nc(NCc3cccc(Br)c3)[nH]n2c(=O)c1Cc1ccccc1	-20%	-13%
CCN(Cc1ccc2c(c1)OCCO2)S(=O)(=O)c1cnn(C)c1	-10%	54%[activator]
N#CCOc1ccc(NC(=O)c2nn(Cc3ccccc3)c(=O)c3ccccc23)cc1	0%	25%
Cc1cc(C)cc(N2C(=O)CSC23C(=O)N(Cc2c(F)cccc2Cl)c2ccccc23)c1 (stereo not given)	-1%	-3%
CC(C)(C)c1ccc(-c2csc(NC(=O)COCc3nc4ccccc4c(=O)[nH]3)n2)cc1	77%[activator]	-29%
CCc1cccc(NC(=O)Nc2cn(CC(C)C)c(=O)c3ccccc23)c1	1%	11%
Cc1ccc(NC(=S)NCC(C)(C)N2CCOCC2)cc1C	-2%	0%
COCCSc1nc2c(c(=O)n(C)c(=O)n2C)n1Cc1ccccc1Cl	-7%	-7%
Cc1ccccc1Cn1nnc2c(=O)[nH]c(C3CCN(C(=O)c4ccccc4)CC3)nc21	4%	-10%
CC(CCc1ccco1)NC(=O)c1ccc(Cl)c(S(=O)(=O)NC2CC2)c1 (stereo not given)	11%	0%
Cc1cccc(/C=C2\CCc3ccccc3C2=O)c1	178%[activator]	5%
CCn1c2ccccc2c2nnc(N3CCN(c4cccc(C)c4C)CC3)nc21	-7%	-10%
Cc1ccc(NC2(c3nnnn3-c3ccc(C(C)C)cc3)CCCC2)cc1	20%	196%[activator]
O=C(Cc1cccc(C(F)(F)F)c1)NCc1ccc(CN2CCCCC2)cc1	16%	2%

A few values from the entries so far.
For StopGo RLuc, Cc1cccc(/C=C2\CCc3ccccc3C2=O)c1 shows 5%
For StopGo FLuc, CCn1c2ccccc2c2nnc(N3CCN(c4cccc(C)c4C)CC3)nc21 shows -7%

Next section:
SMILES	StopGo FLuc	StopGo RLuc
COc1ccc(S(=O)(=O)Nc2nc3ccccc3nc2Nc2ccc(C)c(Cl)c2)cc1	4%	23%
Cc1cccc(-c2noc(CN(C(C)C)S(=O)(=O)c3ccc(Br)cc3)n2)c1	-11%	-3%
CCc1ccccc1NC(=O)NCc1ccc2c(c1)CCN2C(=O)c1ccccc1	-21%	-16%
CCc1ccc(NC(=O)c2ccc3c(c2)S(=O)(=O)N=C(C)N3CC(C)C)cc1	3%	14%
CCC(C)Nc1nc(-c2ccncc2)nc2ccccc12 (stereo not given)	6%	12%
COc1cc(-c2noc(-c3ccc(Br)cc3)n2)cc(OC)c1OC	7%	-1%
O=C(Cc1c(Cl)cccc1Cl)Oc1ccc(OCc2ccccc2)cc1	149%[activator]	21%
CCOc1ccc(NC(=O)Cn2c(=O)c3cccn3c3ccccc32)cc1	28%	8%
CC12CCC(C/C1=N\O)C2(C)C (stereo not given)	-2%	9%
O=c1c2ccccc2nc(-c2ccccc2)n1CCOc1ccccc1	37%[activator]	2%
CCc1ccc(NCc2cc3ccc(OC)cc3n(CC(=O)Nc3ccc(C(C)C)cc3)c2=O)cc1	54%[activator]	-7%
O=C(NCc1ccccc1F)C(=O)NCC(c1ccco1)S(=O)(=O)c1cccs1 (stereo not given)	-29%	-17%
O=S(=O)(N1CC=C(c2c[nH]c3cc(F)ccc23)CC1)N1CCCCCC1	-2%	15%
O=C(COc1ccc2c(=O)c(-c3ccc(Cl)cc3)coc2c1)Nc1ccc2c(c1)OCCO2	140%[activator]	1%
CCCN(CCC)Cc1nc2c(c(=O)[nH]1)C1(CCCC1)Cc1ccccc1-2	3%	-1%
COc1ccc(Cl)cc1NC(=O)[C@H]1C[C@H](C(C)C)N[C@]12C(=O)Nc1c(C)cc(Cl)cc12	1%	14%
O=C(CSCn1nnc2c(=O)[nH]c(Cc3ccc(F)cc3)nc21)Nc1ccccc1	11%	19%
COc1ccc(-n2ccn(CC(=O)Nc3ccccc3C(F)(F)F)c(=O)c2=O)cc1OC	-10%	-10%
CN(CCC#N)S(=O)(=O)c1cc(Cl)ccc1Cl	-3%	-5%
COc1cccc(Cn2c(NCC(C)C)nc3c2c(=O)n(C)c(=O)n3C)c1	-5%	1%
COc1ccccc1C(=O)Nc1nnc(S(=O)(=O)N2CCCCC2)s1	62%[activator]	77%[activator]
CCOC(=O)c1oc2cc(OS(C)(=O)=O)ccc2c(=O)c1-c1ccc(Br)cc1	22%	-9%
COc1ccc(Cl)cc1NS(=O)(=O)c1ccc(N2C(=O)C(C)CS2(=O)=O)cc1 (stereo not given)	-8%	-1%
Cn1nc(-c2ccc(OCC(=O)NC(C)(C)C)cc2)c2ccccc2c1=O	22%	12%
CCOc1ccc(NC(=O)N2CCC3(CC2)Oc2ccccc2C(=O)N3Cc2ccccc2F)cc1	-15%	1%
O=C(NCC1CCCO1)c1ccc(NS(=O)(=O)c2ccc3[nH]c(=O)[nH]c3c2)cc1 (stereo not given)	-2%	12%
CCSc1nnc2c(n1)OC(c1sccc1C)N(C(C)=O)c1ccccc1-2 (stereo not given)	0%	31%[activator]
Cc1cccc(C)c1Nc1nc(N)c(C(=O)c2c(C)[nH]c3ccccc23)s1	-14%	4%
Cc1cc(C)n2nc(C(=O)Nc3nc(-c4cccc(Br)c4)cs3)nc2n1	23%	15%
COc1ccc(CC(NC(=O)c2nn(C)c(=O)c3ccccc23)c2ccc(OC)cc2)cc1 (stereo not given)	60%[activator]	5%

Retrieved one by one from above:
SMILES	StopGo FLuc	StopGo RLuc
Cn1nc(-c2ccc(OCC(=O)NC(C)(C)C)cc2)c2ccccc2c1=O	22%	12%
CCSc1nnc2c(n1)OC(c1sccc1C)N(C(C)=O)c1ccccc1-2 (stereo not given)	0%	31%[activator]
O=C(NCC1CCCO1)c1ccc(NS(=O)(=O)c2ccc3[nH]c(=O)[nH]c3c2)cc1 (stereo not given)	-2%	12%
CCOc1ccc(NC(=O)N2CCC3(CC2)Oc2ccccc2C(=O)N3Cc2ccccc2F)cc1	-15%	1%
CCOC(=O)c1oc2cc(OS(C)(=O)=O)ccc2c(=O)c1-c1ccc(Br)cc1	22%	-9%
COc1ccc(CC(NC(=O)c2nn(C)c(=O)c3ccccc23)c2ccc(OC)cc2)cc1 (stereo not given)	60%[activator]	5%
Cc1cc(C)n2nc(C(=O)Nc3nc(-c4cccc(Br)c4)cs3)nc2n1	23%	15%

Following part.
SMILES	StopGo FLuc	StopGo RLuc
O=C(O)c1ccc(CNCc2cccc(Cl)c2Cl)cc1	0%	12%
Cc1ccc(CN2COc3ccc4c(C)cc(=O)oc4c3C2)cc1	11%	0%
CC(C)(C)OC(=O)N1CCC(c2c(C(=O)N3CCN(C(=O)c4ccco4)CC3)cnn2-c2ccc(F)cc2F)CC1	-17%	-11%
O=C(C1COc2ccccc2O1)N(Cc1cccnc1)c1nc2c(F)cc(F)cc2s1 (stereo not given)	87%&30%[activator]	11%&-5%
CCCN(Cc1cccs1)C(=O)Nc1ccc(OCC)cc1	98%[activator]	-4%
O=C(Nc1nc(-c2ccc(Cl)s2)cs1)c1ccccc1F	180%[activator]	20%
Cc1ccc(C(=O)CSc2nc(-c3ccccc3)nc3c2CCCC3)c(C)c1	-12%	-10%
COc1ccc(-c2nc(CSC(C)C(=O)NC(C)(C)C)co2)cc1 (stereo not given)	-19%	u
Cc1cc(N2CCN(S(=O)(=O)c3ccc(C(F)(F)F)cc3)CC2)nc(C(C)C)n1	11%	1%
COc1ccc(NC(=O)CN(C)S(=O)(=O)c2cnc[nH]2)cc1	-6%	2%
CCOC(=O)c1c(NC(=O)CSc2cn(CCNC(=O)c3ccc(OC)c(OC)c3)c3ccccc23)sc2c1CCC2	-16%	-6%
Cc1noc(C)c1COc1cccc(C(=O)N2CCC(C(N)=O)CC2)c1	10%	28%
CCOc1ccc(CNC(=O)c2nn(-c3ccc(OC)cc3)c(=O)c3c2c2ccccc2n3C)cc1	-5%	3%
Cc1c(Cl)cccc1NC(=O)Nc1ccc2c(c1)N(C(=O)c1ccccc1)CC2	7%	10%
COc1ccc(-c2cc3ccc(OC(=O)N4CCOCC4)cc3oc2=O)cc1	57%[activator]	14%
COc1ccc(NS(=O)(=O)c2ccc(N3CCCCS3(=O)=O)cc2)cc1Cl	u	29%
Cc1nn(-c2ccc(N3CCOCC3)nn2)c(C)c1CCC(=O)NCc1ccc(Cl)cc1	-7%	-11%
CCc1cccc2c(C(=O)CN3CCN(C(C)C(=O)NC4CC4)CC3)c[nH]c12 (stereo not given)	-14%	-23%
Cc1ccc(C(C)NC(=O)Nc2ccc(Cl)cc2F)c(C)c1 (stereo not given)	2%	-4%
Fc1ccccc1C1=NC(c2ccc(C(F)(F)F)cc2)=Nc2ccccc2N1	6%	33%[activator]
CCc1cc(=O)oc2cc(OCC(=O)NC3CC(C)(C)NC(C)(C)C3)ccc12	-1%	-10%
COc1ccc(CN2CCN(Cc3ccncc3)CC2)c(OC)c1	-10%	-3%
CCn1c(C)cc(C(=O)CSc2nc3ccc(OC)cc3[nH]2)c1C	70%[activator]	49%[activator]
CCN(CCCNC(=O)CN1N=C(c2ccc(OC)cc2)CCC1=O)c1cccc(C)c1	8%	u
COc1ccccc1C1C=C(c2ccc(C(C)C)cc2)Nc2nnnn21 (stereo not given)	4%	18%
CCC1CN(C(=O)C2CCN(S(=O)(=O)c3c(C)noc3/C=C/c3ccc(C)cc3)CC2)c2cc(C)ccc2O1 (stereo not given)	-9%	3%
O=C(C1CCN(c2ncnc3c2nc2n3CCCCC2)CC1)N1CCN(c2ccccc2F)CC1	u	u
COc1cccc(-c2cc(C(=O)NCc3ccccn3)[nH]n2)c1	116%[activator]	49%[activator]
CCC(=O)N1CCc2cc(Br)cc(S(=O)(=O)N3CCN(c4cc(C)ccc4C)CC3)c21	-20%	-13%
Cc1ccc(O)c(C(C)(C)C)c1	11%	-4%
Cc1cc(C)c(C)c(SC(C(N)=O)c2ccccc2)c1C (stereo not given)	-9%	-1%
COC(=O)COc1ccc2cc(-c3ccc(Cl)cc3)c(=O)oc2c1	12%	-1%
COc1ccc(CC(=O)NCCc2sc(-c3ccc(Cl)cc3)nc2C)cc1OC	u	u
COC(=O)C1=C(N)Oc2c(oc(CO)cc2=O)C1c1ccc(F)cc1F (stereo not given)	-15%	-19%
COc1ccccc1C(=O)Oc1ccc(C)cc1	35%[activator]	13%
Cc1c(Cl)cccc1NC(=O)Cn1cnc2nc3c(cc2c1=O)CCCC3	-21%	4%
O=C(Oc1ccc(Br)c2ccccc12)c1ccc(-c2ccccc2)cc1	11%	5%
CC(C)CSc1nnc(-c2ccccc2)c(-c2ccccc2)n1	2%	1%
COc1ccc(NC(=O)c2nc3nc(C)cc(C)n3n2)cc1OC	16%	8%

Screening data as filed in PubChem.
